Bioassay records deposited in PubChem by National Center for Advancing Translational Sciences (NCATS).
D2 PAM: human D2 receptor positive allosteric modulation. actives 0.23% (n = 360,000). potentiation, % (no concentration beside the values). P14416. DiscoveRx D2 beta-arrestin cells, luminescence, 90 min; 100% = 57 uM dopamine signal; active = potentiation of 50% or more; inconclusive = 30% to 50%; inactive = 30% or less;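 also: compound concentration not given in the record; tested on top of an EC20 dose of dopamine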
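PathHunter D2 cells, attached overnight at 37 deg C, received compound in DMSO plus dopamine at EC20 (50 nM final) for 90 min at 37 deg C. Beta-arrestin recruitment was read as luminescence after 1 h with detection reagent at ambient temperature.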
D2 agonist: activates the human D2 dopamine receptor | actives 0.084% (n = 360,000) | P14416 | AID 624465 | DiscoveRx PathHunter D2 beta-arrestin, luminescence, 90 min; 100% = 57 uM dopamine signal | activation, % (no concentration beside the values); in the data active = activation above about 40%; inconclusive = about 15% to 40%; inactive = below about 15%; also: compound concentration not given in the record; the text of the record calls up to 30% inactive
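DiscoveRx PathHunter D2 beta-arrestin cells (2,100/well) attached overnight, then compound-stimulated 90 min at 37 C in HBSS/10 mM HEPES/0.1% Tween-20 buffer; beta-galactosidase complementation read by luminescence after 1 h at ambient temperature. Dopamine 57 uM final (EC100) as control.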
gsp ag: activates gsp, the McCune-Albright syndrome mutation; gsp mutant cells, cAMP HTRF, 30 min; control for the full effect not named in the record; Potency, µM (highest dose often 76.9 µM), for the others: at the highest dose activation (cAMP increase), most hits filed as activators; actives 0.13% (n = 340,000); AID 624287; active = well fitted activation curve with a large enough effect; inconclusive = small, poorly fitted or top-dose-only effect, or another doubt; inactive = no such curve, though single readings can be large or run the other way; cell line not stated here;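 also: phosphodiesterase inhibitor Ro 20-1724 added with compounds to block cAMP breakdown; potency is read from the fitted curve at half-maximal effect; nearly all actives have a fitted effect of over 60% in size; about a fifth of the inactives were tested at one dose only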
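Cells in DMEM/10% FBS with G418 were pretreated with compounds in DMSO plus […] (300 uM stock) for 30 min at 37C. cAMP was measured by HTRF (cAMP-d2 plus anti-cAMP antibody-K) after 30 min at room temperature.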
gsp antag: antagonizes gsp, the McCune-Albright syndrome mutation; gsp-mutant cells, cAMP HTRF, 30 min; control for the full effect not named in the record; Potency, µM (highest dose often 76.9 µM), for the others: at the top dose activity change, negative = inhibition, most hits filed as inhibitors; actives 0.4% (n = 340,000); active = falling curve of any shape with a large fitted effect; inconclusive = falling curve, mostly with a smaller effect; inactive = flat or rising curve; cell line not stated here;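 also: intracellular cAMP measured with PDE inhibitor Ro 20-1724 present during compound exposure; potency is read from the fitted curve at half-maximal effect; % is scaled to controls: 0 for no effect and ±100 for the full control effect; nearly all actives have a fitted effect of over 65% in size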
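G418-selected cells were plated in DMEM/10% FBS for 16-24 h at 37C, then treated with compounds plus the PDE inhibitor […] (300 uM solution added) for 30 min at 37C. Intracellular cAMP was measured by HTRF after 30 min lysis at room temperature.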
Six1-Eya2 inh: Six1/Eya2 interaction inhibition | actives 0.56% (n = 360,000) | Q15475+O00167 | AlphaScreen GST-Six1/His-Eya2 binding, biochemical; active compounds read low; control for the full effect not named in the record | activity change, % (test concentration not listed); in the data active = activity change below about -65%; inconclusive = about -30% to -65%; inactive = above about -30%; also: % is scaled to controls: 0 for no effect and ±100 for the full control effect
Target sequence (O00167 whole entry, looked up): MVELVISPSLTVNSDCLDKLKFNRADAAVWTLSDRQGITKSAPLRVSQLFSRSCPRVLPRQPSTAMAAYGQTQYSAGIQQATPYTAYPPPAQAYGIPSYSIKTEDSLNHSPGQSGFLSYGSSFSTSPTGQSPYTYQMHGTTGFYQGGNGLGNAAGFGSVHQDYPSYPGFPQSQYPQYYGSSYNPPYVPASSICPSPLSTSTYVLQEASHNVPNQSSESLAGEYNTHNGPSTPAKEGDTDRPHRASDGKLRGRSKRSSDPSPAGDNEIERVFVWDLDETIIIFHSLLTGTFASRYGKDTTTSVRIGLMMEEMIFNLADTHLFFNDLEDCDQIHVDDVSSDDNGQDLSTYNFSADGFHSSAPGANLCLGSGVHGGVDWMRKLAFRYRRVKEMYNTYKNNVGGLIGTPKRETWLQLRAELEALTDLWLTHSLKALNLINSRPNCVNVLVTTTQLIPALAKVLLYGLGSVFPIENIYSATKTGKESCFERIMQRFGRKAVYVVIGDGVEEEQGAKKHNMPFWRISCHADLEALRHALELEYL
Target sequence (Q15475 whole entry, looked up): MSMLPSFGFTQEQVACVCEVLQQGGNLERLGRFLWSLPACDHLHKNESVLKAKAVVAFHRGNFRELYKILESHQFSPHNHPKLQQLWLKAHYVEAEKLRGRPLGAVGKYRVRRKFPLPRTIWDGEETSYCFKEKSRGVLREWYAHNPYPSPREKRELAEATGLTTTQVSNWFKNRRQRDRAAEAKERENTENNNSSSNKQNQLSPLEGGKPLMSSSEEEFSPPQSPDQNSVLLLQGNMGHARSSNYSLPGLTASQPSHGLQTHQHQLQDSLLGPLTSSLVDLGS
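Compounds are tested against tagged Six1 and Eya2 proteins bridged by glutathione donor and nickel acceptor beads; after a one-hour incubation at 37 °C without light, AlphaScreen emission is recorded.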
CtBP-E1A inh: blocks the CtBP interaction with E1A; AlphaScreen GST-E1A/His-CtBP binding, 1536-well; active compounds read low; control for the full effect not named in the record; activity change, % (concentration not given with the values); actives 0.49% (n = 340,000); AID 651724; in the data active means activity change below about -65%; inconclusive means about -30% to -65%; inactive means above about -30%; also: % is scaled to controls: 0 for no effect and ±100 for the full control effect
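GST-E1A and His-tagged CtBP (125 nM each as 5X stock) were preincubated with pin-transferred compound for 2 h at 37 °C in the dark, then glutathione donor and nickel acceptor beads were added for 1 h before AlphaScreen reading.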
An asterisk follows results filed as active; ? = inconclusive; . = not tested or not shown; [ ] = remark or other dose.

D2 agonist	gsp ag	canonical_smiles	Six1-Eya2 inh	CtBP-E1A inh	D2 PAM	gsp antag
0.9	29%	CN(C)CCN(C(=O)C1CCCCC1)c1nc2cc3c(cc2s1)OCO3	7	0	-32	-9%
-0.3	0%	O=C(CSc1ccccc1[N+](=O)[O-])NC1CCS(=O)(=O)C1 (centres undefined)	3	2	-6	10%
-5.0	-1%	CCOC(=O)C(c1ccccc1)C(Nc1ccc(F)cc1)c1ccccn1 (centres undefined)	0	.	-25	-23%
3.8	20%[15.4 µM]	O=C(NCCCn1ccnc1)c1ccccc1F	8	5	-2	3%
-0.1	-51%[inhibitor]	CCCCCOC(=O)NCCOC(=O)Nc1ccc(C(=O)OCC)cc1	1	2	-7	?
-1.7	9%	COC(=O)c1cc(C(=O)OC)cc(N2C(=O)CC(N3CCN(c4ccccc4)CC3)C2=O)c1 (centres undefined)	-8	-2	1	-5%
1.7	1%	O=C(CSc1ccc(-c2nc3ccccc3[nH]2)cn1)N1CCN(C(=O)c2ccco2)CC1	?	-7	0	?
-2.8	.	Cn1c(-c2ccccc2)cc2onc(-c3ccccc3)c2c1=O	1	0	-6	3%
0.3	9%[15.4 µM]	O=S(=O)(NCC1CCCO1)c1cnc(Cl)c(Cl)c1 (centres undefined)	18	-1	0	7%
-5.4	-16%	CC1CC(C)CN(S(=O)(=O)c2ccc(Oc3ccc([N+](=O)[O-])cc3)cc2)C1 (centres undefined)	-1	5	-3	1%
4.4	13%	COc1ccc(/C=C/C(=O)OCC(=O)c2c(C)[nH]c3ccccc23)cc1OC	3	-3	7	25%
-6.1	0%[15.4 µM]	Cc1cc(=O)oc2cc(OCCSCCN3CCCC3)ccc12	0	-2	-10	9%

Two of the compounds above, with bars between the fields:
molecule | D2 agonist | gsp ag | Six1-Eya2 inh | CtBP-E1A inh | D2 PAM | gsp antag
O=C(CSc1ccccc1[N+](=O)[O-])NC1CCS(=O)(=O)C1 (centres undefined) | -0.3 | 0% | 3 | 2 | -6 | 10%
CCOC(=O)C(c1ccccc1)C(Nc1ccc(F)cc1)c1ccccn1 (centres undefined) | -5.0 | -1% | 0 | . | -25 | -23%

(continued)
D2 agonist	gsp ag	canonical_smiles	Six1-Eya2 inh	CtBP-E1A inh	D2 PAM	gsp antag
-8.9	-30%	CCn1ccc(C(=O)Nc2ccccc2Cl)n1	1	.	-10	50µM*
-2.4	1%[15.4 µM]	CC(=O)Nc1nc(C2CC2)cc(-c2ccccc2)c1C#N	5	9	-7	7%
-3.6	-5%[15.4 µM]	COc1cccc(NC(=O)C(=O)NCCc2ccc(F)cc2)c1	5	0	-11	-18%
0.2	-2%[15.4 µM]	COC(=O)C1=C(N)Oc2c(oc(CO)cc2=O)C1c1ccc(F)cc1 (centres undefined)	1	3	3	0%
-1.3	0%[15.4 µM]	Cn1nc(C(=O)NNC(=O)CCOc2ccc(C(C)(C)C)cc2)c2ccccc2c1=O	-11	-11	-8	-6%
4.5	0%[15.4 µM]	O=C1c2cc(S(=O)(=O)N(CCO)CCO)ccc2-c2ccc(S(=O)(=O)N(CCO)CCO)cc21	-5	1	-1	15%
-3.7	3%	O=[N+]([O-])c1c(NCCO)cc(Sc2nc3ccccc3s2)c2nonc12	?	-11	-30	-39%
-4.5	-34%[inhibitor]	COc1ccc(N2CC(C(=O)Nc3ccc(F)cc3F)CC2=O)cc1 (centres undefined)	6	3	-3	4%
-4.8	-53%[inhibitor]	COc1ccccc1NC1SC(=O)N(c2ccccc2)C1=O (centres undefined)	4	0	-27	-4%
1.1	?	COc1ccc(COn2c(=O)c(C)[n+]([O-])c3ccccc32)cc1OC	-5	-6	?	3%
-1.1	1%[15.4 µM]	O=C(CSc1nc2ccccc2s1)Nc1ccc(Cl)c(C(=O)O)c1	-10	-23	-1	2%
-3.2	.	CCc1nc2ccc(C(=O)NCCCn3ccnc3)cn2c1N(CC)C(=O)NCCc1ccccc1	-2	-6	-12	.
2.8	16%	Cc1ccc(SC(C)C(=O)O/N=C(\N)c2ccncc2)cc1 (centres undefined)	-8	-19	-30	-5%
2.3	?	Cc1[nH]c(=O)[nH]c(=O)c1/C=N/NC(=O)[C@@H](N)CC(C)C	-87*	-23	-1	7%
-1.1	-4%[15.4 µM]	CCc1ccccc1NS(=O)(=O)c1cc2c3c(c1)CCN3C(=O)CC2	0	13	-1	-30%
-2.9	16%	Cn1c(=O)c2cc(NC(=O)c3ccccc3Cl)c(=O)oc2n(C)c1=O	13	46	-1	7%
-4.0	15%	NS(=O)(=O)c1ccc(CCNC(=O)c2ccc(Cl)c(S(=O)(=O)NCc3ccco3)c2)cc1	3	2	-4	1%
0.1	?	O=C(Oc1ccc(-c2cnc3ccccc3n2)cc1)c1cc([N+](=O)[O-])ccc1Cl	-4	4	-15	13%
-0.8	?	CC(C)c1ccc(OCC(=O)NC(=S)Nc2ccc3c4c(cccc24)CC3)cc1	0	2	2	23%
9.7	-10%	CCn1c(SCc2ccccc2)nc2c1c(=O)[nH]c(=O)n2C	-14	.	0	8%
?	-10%	COCCN(CCOC)S(=O)(=O)c1ccc(C(=O)Nc2nc3c(s2)CCc2ccccc2-3)cc1	3	2	2	8%
-4.4	-11%[15.4 µM]	COc1ccc(C(=O)c2c[nH]c(C(=O)NCCCN3CCOCC3)c2)cc1	-1	1	-9	3%
-2.8	1%	O=C(CN(Cc1ccccc1F)C(=O)Cn1nnc(-c2cccs2)n1)NC1CCCCC1	-2	9	-8	-15%
-3.1	19%	Cc1nc(CSc2ccc(Cl)cc2)cc(N2CCOCC2)n1	4	-2	-5	-4%
-0.9	-10%	CCC(C)Nc1nc(Cl)nc(N(C#N)CN2C(=O)c3ccccc3S2(=O)=O)n1 (centres undefined)	-6	-3	-7	-16%
-1.9	8%	Cc1cccc(NC(=O)c2cc3c(s2)-c2c(C)cccc2OC3)n1	12	7	-13	3%
-2.1	-1%	O=C(Nc1cccc2c1CCCC2)C1CCN(C(=O)NC2CCCCC2)CC1	6	2	2	-1%
4.2	-28%	O=C(N/N=C/C=C\c1ccccc1[N+](=O)[O-])c1cc(-c2ccc3ccccc3c2)n[nH]1	2	3	3	5%
-0.5	?	O=[N+]([O-])c1ccc(SCc2ccco2)cc1N1CCOCC1	?	?	-4	8%
4.7	.	CN(C)c1ccc(CNC(=O)C2Cc3c(-c4cccc(C(N)=O)c4)ccnc3O2)cc1 (centres undefined)	-21	?	5	.
-2.4	3%	Oc1ccc(C[C@H]2CNCCN2CC2(c3ccccc3)CC2)cc1	7	.	-33	-4%
-2.7	?	Cc1cc2c3c(ccc(C)c3n1)N=CN2c1ccccc1	7	6	-20	0%
-1.2	.	Cc1cc(C(=O)Nc2ncn[nH]2)ccc1[N+](=O)[O-]	-15	-7	-4	-2%
-2.9	?	CCn1c2ccccc2c2nnc(SCC(=O)Nc3c(C)n(C)n(-c4ccccc4)c3=O)nc21	-19	-17	10	8%
-2.6	14%	COc1ccccc1NC(=S)NCc1ccco1	-10	2	-22	5%
1.4	-34%[inhibitor]	Cc1ccc(S(=O)(=O)c2c(C)nn(-c3ccccc3)c2OC(=O)c2ccc(Br)o2)cc1	5	-1	-7	-5%
1.7	4%	COC(=O)c1ccccc1OCCOCCOc1cccc2cccnc12	-5	0	1	2%
-5.9	4%	COC(=O)CCC(NS(=O)(=O)OCC(Cl)(Cl)Cl)c1ccccc1 (centres undefined)	-2	-1	-4	11%
2.5	.	O=C(Nc1ccccc1Cl)c1cc(C2CCCN(C(=O)OCCF)C2)on1 (centres undefined)	8	5	2	.
-1.2	0%	CCCc1[nH]nc2c1C(c1ccc(O)c(OC)c1)C(C#N)=C(N)O2 (centres undefined)	1	2	-17	1%
-0.9	-36%[inhibitor]	CN1CCN(C(=O)c2cccc(COc3cc(Cl)ccc3Cl)c2)CC1	-1	-2	-13	9%
3.7	-9%	CCS(=O)(=O)N1CCCC(C(=O)NCCN2CCC(Cc3ccccc3)CC2)C1 (centres undefined)	2	-1	-25	3%
3.9	3%	FC(F)(F)c1cnc(C(c2ccccc2)c2ncn[nH]2)c(Cl)c1 (centres undefined)	1	0	0	5%
-5.7	.	O=C(COc1ccc2c(c1)oc(=O)c1ccccc12)NC(Cc1ccc(Cl)cc1)C(=O)O (centres undefined)	-27	-28	-20	4%
-0.7	-20%[15.4 µM]	CCN(CC)CC(=O)Nc1sc2c(c1C(=O)c1ccccc1C)CCC2	?	9	1	-10%
2.5	-15%	COc1ccc(C(=O)NCCCn2nc(C)cc2C)cc1S(=O)(=O)N1CCOCC1	8	15	4	4%
-6.6	-1%	Cn1cnc(S(=O)(=O)N2CCN(c3ccc(F)cc3)CC2)c1	6	.	-15	3%
-0.8	1%[15.4 µM]	Cn1c(-c2ccc(Cl)nc2)nc2cc(Cl)ccc21	-1	2	-5	-9%

Filtered by structure: the entries above with an NH in an aromatic ring (nine)
D2 agonist	gsp ag	canonical_smiles	Six1-Eya2 inh	CtBP-E1A inh	D2 PAM	gsp antag
1.7	1%	O=C(CSc1ccc(-c2nc3ccccc3[nH]2)cn1)N1CCN(C(=O)c2ccco2)CC1	?	-7	0	?
4.4	13%	COc1ccc(/C=C/C(=O)OCC(=O)c2c(C)[nH]c3ccccc23)cc1OC	3	-3	7	25%
2.3	?	Cc1[nH]c(=O)[nH]c(=O)c1/C=N/NC(=O)[C@@H](N)CC(C)C	-87*	-23	-1	7%
9.7	-10%	CCn1c(SCc2ccccc2)nc2c1c(=O)[nH]c(=O)n2C	-14	.	0	8%
-4.4	-11%[15.4 µM]	COc1ccc(C(=O)c2c[nH]c(C(=O)NCCCN3CCOCC3)c2)cc1	-1	1	-9	3%
4.2	-28%	O=C(N/N=C/C=C\c1ccccc1[N+](=O)[O-])c1cc(-c2ccc3ccccc3c2)n[nH]1	2	3	3	5%
-1.2	.	Cc1cc(C(=O)Nc2ncn[nH]2)ccc1[N+](=O)[O-]	-15	-7	-4	-2%
-1.2	0%	CCCc1[nH]nc2c1C(c1ccc(O)c(OC)c1)C(C#N)=C(N)O2 (centres undefined)	1	2	-17	1%
3.9	3%	FC(F)(F)c1cnc(C(c2ccccc2)c2ncn[nH]2)c(Cl)c1 (centres undefined)	1	0	0	5%

(more compounds)
D2 agonist	gsp ag	canonical_smiles	Six1-Eya2 inh	CtBP-E1A inh	D2 PAM	gsp antag
-1.5	-14%	CCOC(=O)C1CCN(C(=O)C2CCN(C(=O)c3ccc([N+](=O)[O-])cc3)CC2)CC1	8	1	-18	-6%
1.5	0%	O=C(Cc1csc(N2CCOCC2)n1)N/N=C/c1ccc(Cl)cc1Cl	-5	-11	4	?
-5.2	.	CCc1nc2c(OCC(N)=O)cccn2c1N(C)C(=O)C(C)C	-1	-4	-1	.
-4.4	8%	CC(C)=CC(=O)OCc1csc(CC(=O)Nc2ccccc2C)n1	7	7	-6	-6%
